High-throughput results (PubChem BioAssay)
Resorufin autofl: compounds fluorescent in resorufin spectral region; Compound fluorescence, resorufin region 547/598 nm, buffer; stronger effect = higher value; max dye-equivalent concentration, M; actives 0.04% (n = 59,000); active = above 10 nM dye equivalent; inconclusive = 1 to 10 nM; inactive = 1 nM or less; a few of its hits are not listed in these tables; also: highest value over a series up to 38 µM
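Tris 100 mM pH 8.0; compound added, 15 min RT; CCD imager read, ex 547 nm/em 598 nm; signal normalized to resorufin standard curve (six concentrations per plate) as dye-equivalent concentration.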
AID923: qHTS Assay for Allosteric/Competitive Inhibitors of Caspase-1: Spectroscopic Profiling in AFC Spectral Region; compound fluorescence, AFC spectral region (405/520 nm); almost no hit is shown here; Potency, µM (highest dose often 57.5 µM), for inactives: at the top dose fluorescence increase, hits mostly activators; actives 1.1% (n = 75,000); active = well fitted activation curve with a large enough effect; inconclusive = small, poorly fitted or top-dose-only effect;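 also: potency is read from the fitted curve at half-maximal effect; 0% is about no effect; scaled to a free AFC standard on each plate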
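Baseline compound fluorescence (AFC region, 405 nm ex/520 nm em) taken from the intercept of kinetic reads with 50 nM caspase-1 and 5 uM Ac-WEHD-AFC; normalized to an on-plate AFC standard curve; compounds titrated up to 57 uM.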
A488 autofl: A488 region autofluorescence; compound autofluorescence, A488 spectral region, dye equivalency; stronger effect = higher value; max dye equivalency, M; actives 0.1% (n = 59,000); AID 591; active = above 10 nM dye equivalent; inconclusive = 1 to 10 nM; inactive = 1 nM or less; about half of its hits are not listed in these tables;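 also: highest value over a series up to 38 µM; compound alone in buffer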
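Readout is A488 dye-equivalent concentration, calibrated by a per-plate six-point Alexa 488 series. Compounds in 100 mM Tris buffer pH 8.0 were incubated 15 min at room temperature. Plates were imaged using 480 nm excitation/540 nm emission filters.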
A647 autofl: compound fluoresces in the A647 spectral region; Compound fluorescence, A647 channel (570/671 nm), Tris buffer; max dye-equivalent concentration, M; 59,000 tested, under 10 active; active means above 1 µM dye equivalent; inconclusive means 0.1 to 1 µM; inactive means 0.1 µM or less;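 also: values scaled relative to a standard on each plate; highest value over a series up to 38 µM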
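Compounds pinned into 100 mM Tris pH 8.0, 15 min at room temperature, then read with 570 nm excitation/671 nm emission filters. Fluorescence normalized to an on-plate six-point Alexa 647 standard curve, giving dye-equivalent concentration per compound concentration.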
TSHR agonist: TSH receptor (human) agonism; Potency, µM (highest dose often 57.1 µM), for inactives: at the highest dose activation, actives largely listed as activators; AID 926; P16473; actives 0.48% (n = 73,000); HEK293-CNG-TSHR cells (CNG channel as cAMP sensor), membrane potential dye, cAMP; active = well fitted activation curve of enough size with the parental cells flat; inconclusive = any curve in the parental cells; inactive = parental cells flat and receptor cells flat or falling; also: potency is read from the fitted curve at half-maximal effect; % of control where 0% means no effect; weak receptor curves with flat parental cells got no call and are not listed
Target sequence (P16473 whole entry, looked up): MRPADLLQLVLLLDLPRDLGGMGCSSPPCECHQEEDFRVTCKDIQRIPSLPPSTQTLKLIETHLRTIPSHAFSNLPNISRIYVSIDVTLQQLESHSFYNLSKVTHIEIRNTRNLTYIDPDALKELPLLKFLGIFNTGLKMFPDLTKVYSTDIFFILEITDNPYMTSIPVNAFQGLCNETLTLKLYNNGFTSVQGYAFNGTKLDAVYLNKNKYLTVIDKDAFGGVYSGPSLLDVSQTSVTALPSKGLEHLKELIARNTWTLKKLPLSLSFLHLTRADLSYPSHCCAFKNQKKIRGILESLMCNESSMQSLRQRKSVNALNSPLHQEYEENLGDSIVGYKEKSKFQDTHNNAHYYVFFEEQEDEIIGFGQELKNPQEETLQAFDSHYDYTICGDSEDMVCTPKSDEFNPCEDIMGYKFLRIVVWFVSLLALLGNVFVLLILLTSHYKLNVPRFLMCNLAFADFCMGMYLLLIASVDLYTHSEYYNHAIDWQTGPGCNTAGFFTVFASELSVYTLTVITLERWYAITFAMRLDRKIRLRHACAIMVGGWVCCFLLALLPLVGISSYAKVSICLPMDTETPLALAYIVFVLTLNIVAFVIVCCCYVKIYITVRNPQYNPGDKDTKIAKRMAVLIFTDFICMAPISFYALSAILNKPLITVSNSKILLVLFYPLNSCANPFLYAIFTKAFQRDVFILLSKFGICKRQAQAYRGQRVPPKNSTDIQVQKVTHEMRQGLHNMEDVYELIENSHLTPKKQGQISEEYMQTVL
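cAMP rise detected as CNG-channel membrane depolarization by fluorescent dye (emission 590 nm), 30 min after compound, following 60 min dye loading containing 100 uM RO 20-1724 at room temperature. Cells: TSHR/CNG HEK 293, with parental CNG HEK 293 as control.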
Numbers without * were called inactive; i = inactive; ? = inconclusive; nt = no result given; & = joins results of further samples; [ ] = dose if it differs, or a comment. The list is partial, so the mix of outcomes need not match the whole.

Fields – TSHR agonist, A647 autofl, AID923, A488 autofl, Resorufin autofl
> C[C@]12CCC(=O)C=C1CC[C@@H]1[C@@H]2[C@@H](O)C[C@@]2(C)[C@H]1CC[C@]2(O)C(=O)COC(=O)CCC(=O)O
  nt, 1.5e-08&4.7e-08, nt, i, i
> Cc1ccc(/C=c2\sc3n(c2=O)CN(c2ccc(Br)cc2)CN=3)o1
  nt, 4.6e-09, nt, i, i
> CCc1cc2c(nc1CC)CCN(CC/C(C)=N/O[C@@H](C)c1cn([C@H](CO)Cc3ccccc3)nn1)C2
  -4%&-5%[11.4 µM], nt, -0.2%&2.3%[11.5 µM], nt, nt
> c1ccc(OCCSc2nnnn2C2CCCCC2)cc1
  ?, 2.7e-08, -0.3%, i, i
> COc1cc(CCC(=O)N2CCN(c3ccc(N4CCOCC4)nn3)CC2)cc(OC)c1OC
  1%, nt, 20%, nt, nt
> CCOc1ccc(-n2cnnn2)cc1S(=O)(=O)NCCc1ccc(OC)c(OC)c1
  -1%, 7.2e-09, -1.8%, i, i
> COC(=O)C1CCN(C(=O)c2sc3nc(-c4ccc(F)cc4)cn3c2C)CC1
  4%, 2.7e-09, -0.8%, i, i
> O=C(CNS(=O)(=O)c1cccc2nonc12)NCc1ccc(F)cc1
  -4%, 4.5e-09, -0.8%, i, i
> CCCN[C@@H](C)C(=O)Nc1ccccc1C
  -4%[25.6 µM], 3.5e-08&1e-09, 1.8%[25.7 µM], i, i
> COc1ccccc1-c1ccc2ncnc(NCCN3CCOCC3)c2c1
  14%, 3.3e-08, 1.1%, i, i
> Cc1onc(-c2ccccc2)c1C(=O)Nc1nnc(N(C)Cc2ccccc2)s1
  10%, nt, -0.9%, nt, nt
> Cc1nc2ccccc2c2oc(C(=O)NCCCN3CCC(C)CC3)cc12
  22%, nt, -1.0%, nt, nt
> Cc1ccc(-c2nnc(CSc3nc4cc5c(cc4cc3C)OCO5)o2)cc1
  ?, 2.3e-08, -0.7%, i, i
> O=S(=O)(c1ccc(S(=O)(=O)N2CCN3CCCC3C2)cc1)N1CCCC1 (centres undefined)
  1%, 2.2e-09, 0.4%, i, i
> COC(=O)C(C)Sc1nnc(-c2ccncc2)o1 (centres undefined)
  ?, nt, 5.5%, nt, nt
> CC(C)(C)Nc1nc(OCC(F)(F)F)nc(OCC(F)(F)F)n1
  8%, 3.4e-09, 1.0%, i, i
> Cn1c(=O)n(C)c2cc(NS(=O)(=O)c3ccc4c(c3)CCCC4)ccc21
  9%, 4.6e-09, -0.6%, i, i
> CC(C)(C)c1ccc(O)c(CN(Cc2cc(C(C)(C)C)ccc2O)C2CCCCC2)c1
  18%[11.4 µM], 7.7e-09, -2.7%[11.5 µM], i, i
> COC(=O)c1ccc2c(c1)N(Cc1cc(C)ccc1C)C(=O)c1ccccc1S2=O (centres undefined)
  4%, nt, -2.0%, nt, nt
> COc1cc(NC(=O)c2ccco2)c(OC)cc1NC(=O)Nc1ccccc1Cl
  -32%[inhibitor], 2.4e-08, 4.2%, i, i

A run of entries from further up:
Fields – TSHR agonist, A647 autofl, AID923, A488 autofl, Resorufin autofl
> O=S(=O)(c1ccc(S(=O)(=O)N2CCN3CCCC3C2)cc1)N1CCCC1 (centres undefined)
  1%, 2.2e-09, 0.4%, i, i
> COC(=O)C(C)Sc1nnc(-c2ccncc2)o1 (centres undefined)
  ?, nt, 5.5%, nt, nt

(next part)
Fields – TSHR agonist, A647 autofl, AID923, A488 autofl, Resorufin autofl
> O=c1cnc2cnc(Oc3ccccc3)nc2n1Cc1cccs1
  ?, 1e-09, 4.3%, i, i
> O=C1N2CCSC2=NC1(Nc1nccs1)C(F)(F)F (centres undefined)
  -12%, 2.6e-08, 0.8%, i, i
> O=C(COc1ccccc1O)N1CCN(C(=O)c2ccco2)CC1
  0%, 4.1e-08, -0.5%, i, i
> O=C1C2C3C=CC(C3)C2C(=O)N1c1cccc(N2C(=O)C3C4C=CC(C4)C3C2=O)n1 (centres undefined)
  2%, nt, 4.1%, nt, nt
> Cc1ccc(C(C(=O)NC(C)(C)C)N(C(=O)c2csnn2)c2ccccc2F)o1 (centres undefined)
  nt, 3.1e-08, 0.1%, i, i
> CCCNC(=O)Cc1ncn[nH]1
  -1%[11.4 µM], 2.8e-08, -0.3%, i, i
> Cc1sc(CO)c(Sc2ccccc2)c1C(=O)O
  3%, 8e-09, -0.6%, i, i
> CC(=O)N1CCCc2cc(S(=O)(=O)N3CCN(c4ccccn4)CC3)ccc21
  1%, 6.5e-09, -0.7%, i, i
> CCN=C1SC(C(=O)Nc2cccc(C(=O)O)c2)CC(=O)N1CC (centres undefined)
  -1%, 2.1e-08, 1.8%, i, i
> O=C1NCC(CN(c2ccccc2)c2ccccc2)O1 (centres undefined)
  2%, 1.5e-08, 1.1%, i, i
> CCC(C)NC(=O)CCS(=O)(=O)c1ccc2c(c1)n(C)c(=O)c(=O)n2C (centres undefined)
  4%, nt, 1.5%, nt, nt
> Cn1c(=O)c2c(nc(Oc3ccccn3)n2C)n(C)c1=O
  nt, 1.9e-08, 1.3%, i, i
> CC(=O)C1=C(NC(=O)c2ccccc2F)C[C@@H]2[C@H]1C2(C)C
  nt, 4.1e-08, nt, i, i
> Clc1ccc(-c2cn3c(n2)CCC3)cc1
  nt, 9.3e-08, nt, i, i
> S=c1[nH]c2ncccc2o1
  -3%, 1e-09, 0.3%, i, i
> CCCCN(C)C(=O)c1cn(C)c2ccc(S(=O)(=O)N(C)C)cc2c1=O
  -2%, nt, -1.6%, nt, nt
> Cc1c(/C(O)=C2/C(=O)C(=O)N(CCN3CCOCC3)C2c2ccco2)cnn1-c1ccccc1 (centres undefined)
  17%, 2.7e-08, -0.9%, i, i
> COc1ccccc1CN(Cc1cc2cc(C)cc(C)c2[nH]c1=O)Cc1nnnn1CC1CCCO1 (centres undefined)
  ?, 1e-09, 2.9%, i, i
> COc1ccccc1CNS(=O)(=O)c1cccc(S(=O)(=O)N2CCOCC2)c1
  -2%, 2.3e-09, 0.3%, i, i
> COc1cccc(C2c3c(oc4ccc(Cl)cc4c3=O)C(=O)N2c2cc(C)on2)c1OC (centres undefined)
  -6%, 3.9e-08, 0.8%, i, i
> O=C1CCCCCN1CP(=O)(O)CCc1ccccc1
  7%, nt, 2.6%, nt, nt
> O=C(NC(Cc1ccccc1)C(=O)O)c1ccccc1 (centres undefined)
  1%, 1e-09, 2.8%, i, i
> O=C1OCc2ccc(NC(=O)C3CCCCC3)cc21
  2%, 1e-09, 2.1%, i, i
> CC(=O)C(Sc1nc(-c2ccco2)nc2c1c(=O)n(C)c(=O)n2C)C(=O)N(C)C (centres undefined)
  -4%, 1e-09, -0.2%, i, i
> O=C(Cn1cnc2c(nnn2Cc2ccc(F)cc2)c1=O)N1CCN(c2ccccc2)CC1
  14%, 6.4e-09, -1.1%, i, i
> CCCCn1cnc2sc3c(c2c1=N)CCCC3
  20%, nt, -0.7%, nt, nt
> Cc1cc(Cl)ccc1Nc1sc(C(=O)c2cc3cc(Cl)ccc3o2)c(N)c1C#N
  -3%[11.4 µM], 4.5e-08, 0.7%[11.5 µM], i, i
> CCC/C=C(\CCC)C(NS(=O)(=O)c1ccc(-c2ccccc2)cc1)c1ccc(C(=O)OC)cc1 (centres undefined)
  2%, nt, 2.1%, nt, nt
> CC(=O)Nc1ccc(S(=O)(=O)N2CCC(c3nc4ccccc4[nH]3)CC2)cc1
  -2%, 1e-09, -0.8%, i, i
> O=C(CN1CCOCC1)NC1CC2CCC1C2 (centres undefined)
  0%, 1e-09, 1.8%, i, i
> CCC1Oc2ccccc2N(CC(=O)NCCC2=CCCCC2)C1=O (centres undefined)
  ?, 4.9e-09, -1.0%, i, i
> COC(=O)[C@H](Cc1ccccc1)NC(=O)NCC1CCCO1 (some centres undefined)
  10%, 1.9e-08, 1.6%, i, i
> O=C(O)CCc1ccc(-c2ccccc2)[nH]1
  2%[11.4 µM], 3.2e-08, 4.9%[11.5 µM], i, i
> COc1ccc(CNC(=O)Cn2nc(-c3ccc4c(c3)OCCO4)ccc2=O)cc1
  5%, 4.1e-09, 1.5%, i, i
> CCC(=O)Nc1ccc(-c2nnc(SCC(=O)Nc3nccs3)n2C)cc1
  -3%, 2.5e-08, -0.6%, i, i
> COc1ncc2nc(C)c(=O)n(CCC#N)c2n1
  -3%, 1.9e-08, -1.0%, i, i
> COc1cc(NC(=O)Nc2ccccc2)c(OC)cc1NC(=O)CN1CCCCC1
  ?, 1e-09, 1.4%, i, i
> Cc1nnc(S(=O)(=O)c2ccc(N=Nc3c(N)nc(N)nc3N)cc2)s1
  4%[11.4 µM], 3e-08, -0.8%[11.5 µM], i, i
> COc1ccccc1Nc1nc(C)cc(=O)[nH]1
  5%, 5.9e-09, -1.6%, i, i
> COC(F)(C(=O)Nc1ccc2c(c1)C(=O)NC2=O)C(F)(F)F (centres undefined)
  13%[11.4 µM], 2.2e-08, 1.7%, i, i
> O=C(c1cc2cc3ccc(Cl)cc3nc2o1)N1CCN(Cc2ccc3c(c2)OCO3)CC1
  ?, 4.4e-09, -0.5%, i, i
> CCC(C)(C(=O)NC1CCCCC1)N(Cc1ccco1)C(=O)CC1NC(=O)NC1=O (centres undefined)
  3%, 1e-09, 2.9%, i, i
> O=[N+]([O-])c1ccc(C2=Nn3c(nnc3-c3ccc(Cl)cc3)SC2)o1
  -4%[11.4 µM], 1e-09, -2.1%[11.5 µM], i, i
> Cc1ccc(N2C(N)=C(C#N)C(c3cccnc3)C3=C2CC(C)(C)CC3=O)cc1 (centres undefined)
  21%, 2.8e-08, 1.6%, i, i
> Cc1cc(N2CCN(C)CC2)nc2ccc(NC(=O)CCC(=O)NCCC3=CCCCC3)cc12
  -5%, 1e-09, 0.7%, i, i
> c1ccc2[nH]c(SCc3cscn3)nc2c1
  2%, 1e-09, 0.9%, i, i
> CCC1CCCCN1CCCNC(=O)CNC(=O)Cn1ccc2ccccc2c1=O (centres undefined)
  2%, 1.5e-08, 0.4%, i, i
> O=C(c1ccco1)N1CCC2(CC1)CCN(c1ccccc1)CC2
  10%, 1e-09, 0.4%, i, i
> CN(C)C(=O)c1ccc(-c2cncnc2NCc2cccnc2)cc1
  ?, 1e-09, 0.6%, i, i
> COc1ccc2c(CC(=O)NCc3ccc4c(c3)OCO4)coc2c1
  5%, 1e-09, -0.8%, i, i

New compounds follow
Fields – TSHR agonist, A647 autofl, AID923, A488 autofl, Resorufin autofl
> Cc1cc(C(=O)COc2nncc3ccccc23)c(C)n1C
  5%, 3.8e-08, 0.7%, i, i
> CCOC(=O)N1CCC(N(C(=O)Nc2ccc(CC)cc2)C(C)CC)CC1 (centres undefined)
  13%, 1e-09, -2.1%, i, i
> CCCCn1cnc2c(c(CC#N)nn2-c2ccccc2)c1=N
  -1%[11.4 µM], 3e-08, -0.4%[11.5 µM], i, i
> COc1ccccc1NC(=O)C1CCCN1C(=O)NCc1ccccc1 (centres undefined)
  -1%, 3.2e-08, -0.7%, i, i
> O=C(O)C1CC=CCC1C(=O)Nc1ccccc1Cl (centres undefined)
  ?, 1e-09, 0.9%, i, i
> CC(=O)c1ccc(Cc2cnc(N)s2)cc1
  ?, 1.4e-09, 0.9%, i, i
> CCCCSc1nnc(-c2ccc(C)cc2)o1
  ?, 5.1e-09, 1.0%, i, i
> O=C(CCc1nc2ccccc2s1)N1CCN(S(=O)(=O)c2cccs2)CC1
  7%, 1.4e-08, 1.0%, i, i
> CCOC(NC(=O)c1ccccc1)C(NC(=O)c1ccccc1)OCC (centres undefined)
  -2%, 1e-09, -0.1%, i, i
> CCCN1Cc2cccc(C(=O)Nc3cc(OC)cc(OC)c3)c2C1=O
  ?, 1e-09, -3.1%, i, i
> COc1cccc([C@@H]2Oc3ccc(OC)cc3/C(=N/O[C@@H](C)CN3CCCc4nc(C)c(C)cc43)[C@@H]2O)c1
  ?, nt, 2.8%[11.5 µM], nt, nt
